High-throughput results from PubChem BioAssay.
BasE inh – inhibitors of Acinetobacter baumannii siderophore enzyme BasE. purified BasE, fluorescence polarization binding displacement. inhibition, % (test concentration not listed). actives 0.1% (n = 84,000);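 active = both replicates above 25% with normal brightness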;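 note: 0% = negative plate control signal and 100% = positive plate control signal; stock transfer was 100 nL into about 30 µL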
KSHV LANA nucl – inhibitors of KSHV LANA binding to nucleosomes; FITC-LANA1-23 / chicken nucleosome fluorescence polarization; hits give low values; z-score (test concentration not listed); actives 0.3% (n = 51,000); AID 720717;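 active = both repeat wells score below -2 in polarization z-score versus plate sample wells, excluding overly bright wells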;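 note: 100 nL library stock added to about 30 µL; numbers are from one replicate; some results filed as inactive read as strong as hits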
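Test system: purified chicken nucleosomes with FITC-labelled LANA N-terminal peptide (1-23); Input: 240 nM purified chicken nucleosomes (480 nM peptide binding sites), final; Medium: TEN-BT buffer, pH 7.5; Timing: 10–45 min, room temperature; Technique: fluorescence polarization, 480 nm excitation, 535 nm parallel and perpendicular emission; Replication: duplicates.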
Numbers without * were called inactive; x = no result given. A portion of the library (hit frequency here may not be typical).

The first four entries, ahead of the listing:
SMILES | KSHV LANA nucl | BasE inh
O=C(COC(=O)C1CC(=O)N(Cc2ccccc2)C1)c1ccc(F)cc1 (stereo not given) | x | 2.1
Cc1c(-n2c(-c3ccccc3Br)n[nH]c2=S)c(=O)n(-c2ccccc2)n1C | x | 2.4
CC(=O)Nc1cccc(Oc2cc(C#N)c(C#N)cc2N2CCCCCC2)c1 | 0.42 | 4.0
FC(F)(F)c1ccc(Nc2ccc3c(c2)CCC3)nc1 | x | 0.9

This part in full, from the first entry:
SMILES | KSHV LANA nucl | BasE inh
O=C(COC(=O)C1CC(=O)N(Cc2ccccc2)C1)c1ccc(F)cc1 (stereo not given) | x | 2.1
Cc1c(-n2c(-c3ccccc3Br)n[nH]c2=S)c(=O)n(-c2ccccc2)n1C | x | 2.4
CC(=O)Nc1cccc(Oc2cc(C#N)c(C#N)cc2N2CCCCCC2)c1 | 0.42 | 4.0
FC(F)(F)c1ccc(Nc2ccc3c(c2)CCC3)nc1 | x | 0.9
CCCN(CCN1CCNCC1)C(O)C1C(=O)CC(C)(C)CC1=O (stereo not given) | -0.079 | 0.6
CN1CC(=O)N(CN2CCN(S(=O)(=O)c3ccccc3C#N)CC2)C1=O | x | 3.1
O=C(/C=C/c1ccco1)OCc1nnc(-c2ccccc2)o1 | x | -1.3
O=C1NC(=NC2CCCC2)S/C1=C\c1ccc(-c2ccc(F)cc2)o1 | x | 1.9
COc1ccc(C(=O)NC2CCCCCC2)c(OC)c1OC | x | 0.3
CC(=O)Nc1cccc(/C(C)=N/N=C2/NC(=O)C(CC(=O)Nc3ccc(Cl)cc3)S2)c1 (stereo not given) | -0.82 | 3.4
CCOc1ccc(C(=O)Nc2c(C)ccc3nsnc23)cc1Br | x | 1.3
CC1CCC(NC(=O)COc2ccccc2C(N)=O)CC1 (stereo not given) | x | 0.4
Cc1ccc2c(c1)c1c3n2CCN(S(C)(=O)=O)C3CCC1 (stereo not given) | -1.3 | 0.1
COC(=O)C1=C(C)C(c2ccccc2OC)NC(=O)N1 (stereo not given) | -0.8 | 0.1
CCN(CC1COc2ccccc2O1)C(=O)c1ccccc1Cl (stereo not given) | x | 0.1
O=C(OCCCn1c(=O)[nH]c2ccccc21)c1ccc2c(c1)S(=O)(=O)c1ccccc1C2=O | x | 0.4
CCOC(=O)c1c(N)n(-c2cccc(S(=O)(=O)N(CC)CC)c2)c2nc3ccccc3nc12 | x | 0.5
O=S(=O)(NCC(c1ccccc1)N1CCN(Cc2ccccc2)CC1)c1ccccc1 (stereo not given) | -1.2 | -0.7
CN(C)CCN(C)CC1=CCC2CC1C2(C)C (stereo not given) | 0.44 | -1.2
S=c1nc(C2CC2)[nH]c2ccccc12 | -0.059 | -3.2
CN(Cc1ccccc1)C(=O)c1ccco1 | 1.5 | -2.6
CC(C)(C)NC(=S)Nc1ccc2nccnc2c1 | 0.016 | -3.1
CCOC(=O)/C(=N\Nc1cccc(C(F)(F)F)c1)N(C)C1CCS(=O)(=O)C1 (stereo not given) | x | -0.1
COc1ccc(N/N=C(\C#N)C(=O)NCCc2ccc(OC)c(OC)c2)cc1 | -1.1 | 0.8
O=C(Cn1c(-c2cccs2)cc2ccccc21)NC1CCCC1 | 0.017 | 1.1
COc1ccc(OC)c(NC(=O)c2ccc3c(c2)CCCN3S(C)(=O)=O)c1 | -0.55 | -4.6
O=C1CSC(=O)N1CCN=Cc1c(O)n(-c2ccc(Cl)cn2)c(=O)c2ccccc12 | x | -30
COc1ccccc1C1CCN(Cc2sc3ccccc3c2C)CC1 | x | 2.4
NS(=O)(=O)c1ccc(-c2ccc(/C=N/NC(=O)Cc3cccs3)o2)cc1 | x | -7.6
NC(=O)COc1ccc(-c2nc3ccccc3s2)cc1 | 0.84 | -3.1

Pulled by compound from above (two):
SMILES | KSHV LANA nucl | BasE inh
O=C1CSC(=O)N1CCN=Cc1c(O)n(-c2ccc(Cl)cn2)c(=O)c2ccccc12 | x | -30
COc1ccccc1C1CCN(Cc2sc3ccccc3c2C)CC1 | x | 2.4

Further entries follow:
SMILES | KSHV LANA nucl | BasE inh
COC(=O)c1sc2ccccc2c1O | x | 2.4
O=C1c2ccccc2C(=O)N1CC1c2ccccc2CCN1S(=O)(=O)c1ccc2[nH]c(=O)c(=O)[nH]c2c1 (stereo not given) | -0.091 | 1.6
CC1CN(C(=S)Nc2cccc(C(F)(F)F)c2)CC(C)O1 (stereo not given) | x | 1.3
O=C(Nc1nc2ccc(Cl)cc2s1)C1CN(C(c2ccccc2)c2ccccc2)C1 | x | 1.5
Cc1ccc(-c2cc(NC(=O)CNC(C)c3ccc(F)cc3F)on2)cc1 (stereo not given) | x | -3.4
O=C(NCCCN1CCc2ccccc2C1)Nc1ccc(Cl)cc1 | 0.39 | -2.5
Cc1ccc(P(/C=C2\N(C)c3ccccc3C2(C)C)(=Nc2ccc(S(N)(=O)=O)cc2)N2CCOCC2)o1 (stereo not given) | x | -1.8
COCc1c(C(=O)OCC(=O)N2c3ccccc3CC2C)oc2ccccc12 (stereo not given) | x | -1.1
COc1ccc(C(=O)C(C)OC(=O)Cn2c(CS(C)(=O)=O)nc3ccccc32)cc1 (stereo not given) | x | 4.1
CC(=O)N1c2ccc(S(=O)(=O)N3CCCC3)cc2CC1C(=O)N1CCN(Cc2ccccc2)CC1 (stereo not given) | -1.9 | 2.4
O=S1(=O)CC(O)C(S(=O)(=O)c2ccccc2)C1 (stereo not given) | -0.13 | 2.3
CC1CN(C(=O)Cc2csc3nc(-c4ccc(Cl)cc4)cn23)CC(C)O1 (stereo not given) | -0.19 | 0.3
COc1cccn(CC(=O)NN)c1=O | x | 3.0
Cc1ccccc1CNC(=O)c1oc2ccc3c(c2c1C)C(O)CC(C)(C)O3 (stereo not given) | -0.91 | -4.5
O=C(NC(=S)Nc1ccc(-c2nc3ccccc3o2)cc1)c1cc2ccccc2o1 | x | 0.4
O=C(Nc1ccc(Cl)cc1-c1nc2ccccc2s1)c1ccco1 | -0.68 | -0.6
CCOC(=O)N1CCc2c(sc3c2C(=O)NC(c2ccc(OCC)cc2)N3)C1 (stereo not given) | 0.89 | 0.3
CC(=O)N1c2ccccc2C2(O)N=C(c3ccccc3)SC12 (stereo not given) | -1.4 | -1.2
O=C(CSc1ncnc2ccccc12)NCc1ccco1 | -0.32 | -0.9
COc1ccc(C(=O)Nc2ccc3c(c2)C(=O)N(C)C3=O)cc1OC | x | 3.5
O=C(Cc1ccccc1)Nc1cccc(S(=O)(=O)c2cccc(NC(=O)Cc3ccccc3)c2)c1 | x | 1.5
O=C(c1cnn2c1NC(c1ccc(Br)cc1)CC2C(F)(F)F)N1CCCC1 (stereo not given) | 0.75 | -0.4
Cc1ccc(-n2nc3c(n2)/C(=N/O)CCC3)cc1 | 0.36 | 0.0
COC(=O)c1ccc(S(=O)(=O)N2CCCN(Cc3ccccc3)CC2)n1C | x | -1.7
CCOc1ccc(OCC(=O)Oc2ccc3c(c2)OCO3)cc1 | x | 1.4
CCCn1c(=O)c2ccccc2n2c(SC(C)C(=O)Nc3ccc(Cl)cn3)nnc12 (stereo not given) | x | 0.5
Cc1ccccc1Nc1nc(N)nc(CSc2ncnc3sc4c(c23)CCC4)n1 | x | 2.7
C1COCCNCCOCCN1 | -2.6* | -2.0
O=C1NC23CCCCC2C(c2ccccc2O3)C1C(=O)N1CCOCC1 (stereo not given) | 2.8 | -1.2
O=C(Oc1cccc(Nc2ncnc3ccccc23)c1)c1cccs1 | x | -3.9
CCN1CCN(CCCNC(=O)c2cc3sccc3n2Cc2ccc(F)cc2)CC1 | -0.5 | -2.8
CCOC(=O)N1CCN(CC(=O)N2c3ccccc3Sc3ccccc32)CC1 | -2 | -0.2
COc1ccc(NC(=O)N2CCN(C/C=C/c3ccccc3)CC2)cc1 | x | 0.8
COc1ccc(NC(=O)c2c(NC(=O)CSc3nnc(C4CC4)n3C)sc3c2CCCC3)cc1 | x | 1.1
CNC(=O)c1cc2c(=O)n3ccccc3nc2nc1NC1CCCC1 | 0.63 | -0.3
Cc1cc(/C(=N/O)C(C)(C)NO)ccc1Cl | x | -2.9
Cc1oc(C(=O)O)cc1CSCc1cc(C(=O)O)oc1C | -0.19 | 0.3
O=c1cc(CN2CCN(S(=O)(=O)/C=C/c3ccccc3)CC2)nc2sccn12 | x | -2.7
COc1ccccc1C1C2=C(CC(C)(C)CC2=O)Nc2n[nH]c(C)c21 (stereo not given) | -1 | x
COc1ccccc1CN(C)C(=S)NC1CC1 | x | 0.8
CCn1cc(N)c(C(N)=O)n1 | -0.39 | 0.0
c1cc(CNC2CCCCC2)n(-c2nnc(N3CCCC3)s2)c1 | x | -4.2
O=C(Nc1ccc(S(=O)(=O)NCC2CCCO2)cc1)C1CC(=O)N(c2ccc(Cl)cc2)C1 (stereo not given) | -0.78 | -0.5
CCn1cc(NC(=O)NCc2ccco2)c(=O)c2ccc(C)nc21 | -1.2 | 1.6
Cc1nc(Cc2c(Cl)cccc2Cl)[nH]c(=O)c1Cl | 1.7 | -3.0
COc1ccc(C2c3ccsc3CCN2C(=O)NC(C)(C)C)cc1 (stereo not given) | x | -0.4
CCOC(=O)Cc1nnc2c(Nc3cc(C)ccc3C)nc3nonc3n12 | -0.41 | 2.2
CC1(C)Cc2ccccc2-c2nc3n(c(=O)c21)CCCS3 | -0.21 | 0.1
NNC1=NC2CS(=O)(=O)CC2S1 (stereo not given) | 0.68 | 1.7
Nc1cccc(CN2CCCC2)c1 | -0.81 | -1.0
CCC(C(=O)Nc1c(C)cccc1C)n1c(C(=O)OC)cc2sc(C)cc21 (stereo not given) | -1.3 | -1.4
CCOC(=O)N1CCN(C(=O)CSc2nc(=O)n3ccc(C)cc3n2)CC1 | -0.34 | 1.5
CCOC(=O)c1cc(NC(=O)N(CC)CC)c(C)nc1C | 0.35 | -0.1
N#CCCn1c(=S)[nH]c2ccccc21 | x | -0.2
C=C(C)c1cccc(C(C)(C)NC(=O)NC2CC(C)(C)NC(C)(C)C2)c1 | 3.3 | -3.0
CC(C)(C)C(=O)C(Oc1ccc(Cl)cc1)n1ccnc1 (stereo not given) | 0.31 | x
CN=C1SC(CC(=O)Nc2ccccc2)C(=O)N1C (stereo not given) | 0.86 | -1.0
CC(=O)Nc1ccc2c(c1)C(=O)N(c1ccccc1)C2=O | -0.59 | -0.6
Cc1ccc(NC(=O)c2c(Cl)nc3sccn23)cc1NC(=O)c1c(Cl)nc2sccn12 | x | 0.2
Cc1cccc(-n2c(SC3CCOC3=O)nnc2-c2cccc(S(=O)(=O)N(C)C)c2)c1 (stereo not given) | x | -0.4

Continued (4 carried over from the part before).
SMILES | KSHV LANA nucl | BasE inh
CN=C1SC(CC(=O)Nc2ccccc2)C(=O)N1C (stereo not given) | 0.86 | -1.0
CC(=O)Nc1ccc2c(c1)C(=O)N(c1ccccc1)C2=O | -0.59 | -0.6
Cc1ccc(NC(=O)c2c(Cl)nc3sccn23)cc1NC(=O)c1c(Cl)nc2sccn12 | x | 0.2
Cc1cccc(-n2c(SC3CCOC3=O)nnc2-c2cccc(S(=O)(=O)N(C)C)c2)c1 (stereo not given) | x | -0.4
Cc1ccc2nc3c(c(C)c2c1)CC(C)O3 (stereo not given) | 0.14 | -4.4
S=C(NCC1CCCO1)Nc1ccc(Cl)cc1 (stereo not given) | 0.43 | 2.9
Cc1ccc(CN(C)C(=O)c2cccc(S(=O)(=O)N3CCCC3)c2)cc1 | x | 0.9
O=C(CN1C(=O)C2C3C=CC(C3)C2C1=O)NCc1ccco1 (stereo not given) | 0.07 | -0.2
O=S1(=O)CC/C(=N/NS(=O)(=O)c2ccc(Br)cc2)c2ccccc21 | x | 1.4
O=C(CSc1nc2ccccc2o1)OCC(=O)c1ccc(F)cc1 | -0.073 | 3.8
Cc1cc(=O)[nH]c2sc3c(=O)cc(C(F)(F)F)[nH]c3c12 | -1.3 | 1.9
CC1CCN(C(=O)c2cc(-c3ccc(F)cc3)no2)CC1 | -0.79 | 1.1
COc1ccc(Cn2c(=O)[nH]c3cc(C(=O)NC4CCN(Cc5ccccc5)CC4)ccc32)cc1 | 2.7 | -7.2
Cc1noc(C)c1S(=O)(=O)/N=C/N(C)C | x | 2.4
Cc1ccc(C)c(OCCC(=O)O)c1 | x | -2.2
CCn1c(SCC(=O)c2cccs2)nnc1-c1cccs1 | x | 1.6
CCNc1ncnc2c1oc1ccccc12 | 0.3 | -1.3
CCCCNc1c(Cl)cnn(-c2ccccc2)c1=O | -1.8 | 1.9
COc1cc(OC)cc(-c2cc3nc(C4CCNCC4)cc(=O)n3[nH]2)c1 | 0.25 | -2.0
CCOc1ccc(/C=C2/C(=O)NC(=O)N(C3CCCCC3)C2=O)cc1 | -0.25 | -1.1
O=C1c2ccccc2S(=O)(=O)N1Cc1cccc(S(=O)(=O)N2CCOCC2)c1 | x | 0.9
CCN(CC)S(=O)(=O)c1ccc(NC(=O)COC(=O)c2cncc(Br)c2)cc1 | x | 0.1
O=C(CSc1nc(Nc2ccccc2)nc(N2CCOCC2)n1)N1CCN(c2ccccc2)CC1 | -0.28 | 2.8
COc1cc(OC)cc(C2=NC(C)(C)CO2)c1 | x | 0.5
O=C(Cn1nnc(-c2cccs2)n1)N1c2ccccc2CCc2ccccc21 | -1.4 | 1.8
CC(C)NC(=O)Cn1cc(C(F)(F)F)ccc1=O | x | 0.1
CC(C)Cn1c(SCC(=O)NC2CC2)nnc1-c1ccccc1F | x | -1.4
O=C1C=CC(=O)N1Cc1ccccc1 | x | -1.6
COc1ccccc1-n1cnc2cc(NCc3ccncc3)ccc21 | 0.49 | 32*
Cn1ccnc1SCC(=O)NC1CCCC1 | 2.4 | -0.2
